Screening results (PubChem BioAssay)
miR-21 reporter: raises the signal of a miR-21 reporter; Potency, µM (series often up to 38.3 µM), for inactives: at the top dose reporter change, positive = more light; AID 2288; 340,000 tested, under 10 active; HeLa miR-21 FLuc reporter, luciferase, 48 h; active = well fitted rising curve with a large enough effect; inconclusive = small, poorly fitted or top-dose-only effect; inactive = no such curve, though single readings can be large or run the other way;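 note: % of control where 0% means no effect; miR-21 action dims this reporter so a rising signal means less miR-21 action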
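Compounds were titrated across several concentrations (up to approximately 40 uM) and incubated 48 hours with HeLa miR-21-FLuc reporter cells (miR-21 target sequence downstream of FLuc, endogenous miR-21). Readout was firefly luciferase luminescence after lytic detection reagent.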
* marks the source's active call; other numbers are inactive results; ? = inconclusive.

miR-21 reporter | smiles
-5.2% | Cc1ccc(CCNc2ncnc3onc(-c4ccc(F)cc4)c23)cc1
24.8% | CC(C)c1ccc(CNC(=O)c2ccc(N3CCCC3)c(NC(=O)NCc3ccccc3)c2)cc1
-1.3% | Cc1cc(O)c(C(c2ccccc2)N2CCCCC2)c(=O)n1Cc1ccco1 (stereo not drawn)
-2.0% | O=C(NCCc1ccccc1)c1ccc(Nc2nc3ccccc3n3nnnc23)cc1
8.3% | COc1ccc(CCN2C(=O)c3[nH]nc(-c4ccccc4O)c3C2c2ccc(O)c(OC)c2)cc1 (stereo not drawn)
5.3% | CCOC(=O)c1noc2nc(C)n(Cc3cccc(C#N)c3)c(=O)c12
-10.4% | CCCc1cc(=O)[nH]c(SCC(=O)N2CCN(c3ccccc3OC)CC2)n1
-9.7% | CCOC(=O)c1c(C)c(C(=O)NCc2ccc(Cl)cc2)c(C)n1C
-9.6% | COc1ccc(NC(=O)c2nc(-c3ccc(C)cc3)n3c2CCCCC3)c(OC)c1
4.7% | O=C(NCc1ccco1)c1ccc2c(c1)N(Cc1cccc(Cl)c1)C(=O)c1ccccc1S2(=O)=O
3.0% | CCOC(=O)Cc1ccc(NC(=O)Nc2cccc(OCc3cc(=O)n4cc(C)ccc4n3)c2)cc1
18.7% | CC(C)c1ccc(NC(=O)c2cc(S(=O)(=O)N3CCc4ccccc4C3)ccc2F)cc1
14.7% | CCn1cc(C(=O)NCc2ccc(C)cc2)c(=O)c2cc(S(=O)(=O)N3CCCCCC3)ccc21
-5.6% | Cc1ccc(-n2ncc(C(=O)NCCN3CCCC3)c2C2CCN(C(=O)OC(C)(C)C)CC2)cc1
-1.4% | Cc1ccc(NC(=O)C(=O)NCC(c2cccnc2)N2CCN(Cc3ccccc3)CC2)cc1F (stereo not drawn)
7.9% | COc1cc(OC)c(OC)cc1CN1CCc2nc(N3CCN(c4ncccn4)CC3)ncc2C1
-14.8% | COc1ccc(OC)c(S(=O)(=O)N2Cc3ccccc3CC2C(=O)Nc2ccc(C(C)=O)cc2)c1 (stereo not drawn)
-1.0% | CCOc1ccc(NC(=O)c2sc3nc4c(c(-c5ccccc5)c3c2N)C(=O)CC(C)(C)C4)cc1
3.6% | CCOc1ccc(NC(=O)CN(c2ccc(CC)cc2)S(=O)(=O)c2c(C)noc2C)cc1
2.7% | COc1ccccc1N1CCN(c2ccc(=O)n(CC(=O)Nc3ccc(F)c(F)c3)n2)CC1
-4.4% | Cc1ccc(Cl)cc1N1CCN(C(=O)Cn2c(-c3cccs3)cc3cc(F)ccc32)CC1
11.1% | COc1ccc(-c2noc(CCC(=O)Nc3ccc(C(F)(F)F)cc3)n2)cc1
5.4% | COc1ccc(CCNC(=O)Cn2ccc3cc(S(=O)(=O)N4CCCCC4)ccc32)cc1OC
-2.2% | COc1ccc(-c2oc3ncn4nc(COc5ccc(Cl)cc5)nc4c3c2-c2ccc(OC)cc2)cc1
-2.0% | CC1=C(C(N)=O)C(c2cccc(Br)c2)n2nc(SCc3ccccc3Cl)nc2N1 (stereo not drawn)
1.7% | Cc1ccc2c(c1)c1c(c(=O)n(Cc3ccccc3)c(=O)n1CC(=O)Nc1ccccc1C)n2C
10.1% | COc1cccc(NC(=O)/C(C#N)=C\c2cn(Cc3ccc(Cl)cc3)c3ccccc23)c1
-23.1% | CC(C)(C)OC(=O)N1CCC(c2c(C(=O)Nc3ccc4c(c3)OCCO4)cnn2-c2ccc(F)cc2)CC1
4.2% | COCCNC(=O)c1ccc2c(c1)N(Cc1cc(C)ccc1C)C(=O)c1ccccc1S2(=O)=O
-0.4% | COc1ccc(C(=O)N2CCC(c3ccncc3)CC2)cc1OC
0.9% | CCCn1cc(S(=O)(=O)c2ccc(C)c(C)c2)c(=O)c2cc(F)c(N3CCCCC3)cc21
-26.8% | COc1ccc(C(=O)Nc2cc(C(C)C)c(O)c(S(=O)(=O)c3ccc(Cl)cc3)c2C)cc1
-52.7% | CCN(c1ccccc1)c1ncnc2c1cnn2-c1ccc(OC)cc1
-0.4% | Cc1nn(Cc2noc(C(=O)NC(C)c3ccccc3)n2)c(C)c1Br (stereo not drawn)
20.2% | COc1ccc(CCNC(=O)c2cc3c(-c4ccccc4F)nn(C)c3s2)c(OC)c1
-0.1% | CCCCOc1ccc(C(=O)N(Cc2nc(-c3ccc(Cl)cc3)no2)C(C)C)cc1
-13.2% | Cc1nc2nc(SCC(=O)NCCc3ccccc3)nn2c(C)c1Cc1c(F)cccc1Cl
-3.7% | COc1ccc(CCNC(=O)c2nn(-c3ccc(C)cc3)c(=O)c3c2c2ccccc2n3C)cc1OC
-2.8% | COc1cc2c(cc1NC(=O)COc1ccc(Br)cc1)oc1ccccc12
26.1% | CCOc1ccc(NC(=O)Cn2cnc3sc(C)c(S(=O)(=O)N4CCN(c5ccccc5OC)CC4)c3c2=O)cc1
20.2% | CCCOc1ccc(CNC(=O)c2cc3oc4ccccc4c3n2C)cc1
-0.3% | Cc1cccc(N2CCN(C(=O)CCn3c(=O)c4cccn4c4cccnc43)CC2)c1C
2.6% | O=c1c2sc3ccccc3c2n(Cc2ccc(Cl)cc2)c(=O)n1Cc1ccco1
-4.4% | CCOC(=O)c1cc(S(=O)(=O)Nc2ccc(OC)c(Cl)c2)[nH]n1
-7.5% | COc1cccc(C(=O)NCCc2csc(-c3cccc(F)c3)n2)c1OC
-0.8% | COc1ccc(CNC(=O)c2cc3c(=O)n(Cc4cccnc4)ccc3nc2C)cc1
? | Cc1ccc(/C=C/c2nc3ccccc3[nH]2)cc1
5.6% | O=C(NCc1cccc(F)c1)c1ccccc1NC(=O)c1nsc2ccccc12
-19.4% | O=C(Cn1c(=O)n(Cc2ccc3c(c2)OCO3)c(=O)c2ccc(C(=O)NC3CCCCC3)cc21)Nc1ccccc1F
-44.1% | COc1ccc(CNc2nc(-c3ccccc3)nn2S(=O)(=O)c2ccccc2)cc1

An excerpt of these results, with each value named.
> Cc1nc2nc(SCC(=O)NCCc3ccccc3)nn2c(C)c1Cc1c(F)cccc1Cl
  miR-21 reporter: -13.2%
> COc1ccc(CCNC(=O)c2cc3c(-c4ccccc4F)nn(C)c3s2)c(OC)c1
  miR-21 reporter: 20.2%
> O=C(NCc1cccc(F)c1)c1ccccc1NC(=O)c1nsc2ccccc12
  miR-21 reporter: 5.6%
> CCOC(=O)c1cc(S(=O)(=O)Nc2ccc(OC)c(Cl)c2)[nH]n1
  miR-21 reporter: -4.4%

Additional entries.
miR-21 reporter | smiles
-5.5% | COc1cccc(-n2c(=O)c3sc4ccccc4c3n(CC(=O)Nc3cccc(Cl)c3)c2=O)c1
-12.0% | Fc1ccc(-c2cc(-c3ccccc3)c3c(n2)-c2cc(F)ccc2OC3)cc1
-0.5% | CC(Oc1ccccc1)C(=O)OCc1cc(=O)n2nc(C(C)C)sc2n1 (stereo not drawn)
-27.8% | CCCCOc1ccc(Cn2c(=O)sc3ccccc32)cc1OC
0.6% | CC1=C(C(N)=O)C(c2ccc(C(C)C)cc2)n2nc(SCc3ccccc3F)nc2N1 (stereo not drawn)
? | O=C(Nc1ccc(F)c(Cl)c1)C1CCCN1S(=O)(=O)c1ccc(F)cc1 (stereo not drawn)
21.6% | Cc1cc(C)c(OCC(=O)N(Cc2ccc(N(C)C)cc2)CC2CCCO2)c(C)c1 (stereo not drawn)
-5.8% | O=C(CSc1oc(-c2ccco2)nc1S(=O)(=O)c1ccc(Br)cc1)c1ccccc1
-0.7% | COc1ccc(C)cc1NC(=O)c1ccc2c(c1)N(Cc1cccc(Cl)c1)C(=O)c1ccccc1S2=O (stereo not drawn)
-4.4% | CCn1c(SCC(=O)N2CCC(C)CC2)nnc1-c1ccccc1O
-3.6% | CCc1cccc(C)c1NC(=O)CSc1nnc(N)s1
-8.4% | Cc1scc(CN2CCN(c3ccccc3F)CC2)c1C
-2.2% | Cc1ccc(CNC(=O)CSc2c3c(nc4ccc(Cl)cc24)CCCC3)cc1
0.0% | Cc1ccc(CNC(=O)CN2N=C(c3ccc(C)cc3)CCC2=O)cc1
-69.2% | O=C(c1cc(-c2ccccc2O)on1)N1CCCCC1
13.2% | Cc1ccc(CNc2ncnc3c2cnn3-c2ccc(C)cc2C)cc1
-43.1% | O=C(Nc1ccc(C(=O)N2CCN(c3ccccc3F)CC2)cc1)c1nsc2ccccc12
-7.0% | CC(=O)c1ccc(NC(=O)Cn2cc(S(=O)(=O)Cc3ccccc3Cl)c3ccccc32)cc1
-7.6% | COc1cccc(-n2c(=O)c3c(C)c(C(=O)N(C)C)sc3n(Cc3cccc(C)c3)c2=O)c1
-3.3% | CN(C(=O)c1cc2c(=O)n3ccccc3nc2n1C)c1ccccc1
-5.4% | COc1ccc(OC)c(CNCc2c(C(=O)O)n(Cc3cccc(F)c3)c3cc(OC)ccc23)c1
-3.6% | CC(=O)c1cccc(NS(=O)(=O)c2cc3c(cc2C)n(C)c(=O)c(=O)n3C)c1
5.4% | Cc1nc2ncnn2c(C)c1CCC(=O)N1CCN(c2ccccc2)CC1
-0.1% | COc1ccc(N2CC(NC(=O)c3ccc4c(c3)OCO4)CC2=O)cc1OC (stereo not drawn)
7.0% | CCC1=C(c2ccc(C)cc2)S(=O)(=O)N=C1N1CCC(C(=O)NCCc2cccc(OC)c2)CC1
3.8% | CCSc1nc2n(n1)C(c1ccc(Cl)cc1Cl)C(C(=O)Nc1ccccc1C)=C(C)N2 (stereo not drawn)
-0.9% | Cc1nc2cccnc2n1-c1cccc(C(=O)NCCN(C)C)c1
2.9% | CCOC(=O)c1sc2ncn(CC(=O)Nc3ccc(OC)c(Cl)c3)c(=O)c2c1C
-12.8% | CCCC(=O)n1nc(-c2ccco2)nc1NCc1ccccc1Cl
-2.4% | Cc1cccc(CC(=O)NC2CC(=O)N(c3ccccc3)C2)c1 (stereo not drawn)
-0.8% | COc1cccc(CNC(=O)CCc2c(C)nc3c(c2C)c(=O)n(C)c(=O)n3C)c1
4.3% | CC1=Nc2cc(C(=O)NCc3ccc(C)cc3)ccc2Sc2ccc(Cl)cc21
-1.4% | COc1cccc(CNC(=O)COCc2cc(-c3ccc4c(c3)OCO4)on2)c1
4.5% | COc1ccc(OCC(=O)NCC2(N3CCN(C)CC3)CCCCC2)cc1
-1.2% | Cc1ccc(-c2nc3ncccc3o2)cc1NC(=O)c1cccc(OCC(C)C)c1
-1.2% | Cc1nn(S(=O)(=O)c2ccc(C(C)(C)C)cc2)c(C)c1S(=O)(=O)N1CCC(C)CC1
-2.0% | COc1ccccc1N1CCN(C(=O)Cn2ncc3ccsc3c2=O)CC1
8.7% | CCc1ccc(CNc2ncnc3c2nc2n3CCCC2)cc1
2.3% | COc1cc(NC(=O)c2nn(-c3ccc(F)cc3)c(=O)n(C)c2=O)cc(OC)c1OC
-0.2% | CCOC(=O)c1sc(NC(=O)c2nc3ncccn3n2)c(C(=O)OC(C)C)c1C
14.9% | COc1ccc(CNc2ncnc3onc(C)c23)cc1
0.7% | CCn1c(=O)c(C(=O)Nc2cc(OC)c(OC)c(OC)c2)nc2ccccc21
? | COCCCNC(=O)c1[nH]c2cc(OC)ccc2c1Sc1ccc(C)cc1
? | Cc1ccc(CCNC(=O)c2ccc(CSCc3ccccc3C)o2)cc1
-3.3% | CCCN1C(=O)c2[nH]nc(-c3ccc(F)cc3)c2C1c1ccc(O)c(OCC)c1 (stereo not drawn)
24.1% | O=C1CN(C(=O)c2ccc(S(=O)(=O)N3CCCC3)cc2)C(c2ccccc2)c2cc(Br)ccc2N1 (stereo not drawn)
10.9% | CCC(=O)N1CCc2cc(S(=O)(=O)CCC(=O)N3CCN(c4cccc(C)c4)C(C)C3)ccc21 (stereo not drawn)
-1.1% | Cc1ccc(C)c(N2CCN(C(=O)CN3C(=O)COc4ccc(S(=O)(=O)N5CCC(C)CC5)cc43)CC2)c1
-11.4% | COc1cccc(OCc2nc3ccccc3n2Cc2ccccc2)c1
17.1% | COc1ccc(CNC(=O)c2ccc3c(c2)CCN3S(=O)(=O)c2ccc(Cl)cc2)cc1

Some of the entries above, reformatted.
Compound,miR-21 reporter
Cc1nn(S(=O)(=O)c2ccc(C(C)(C)C)cc2)c(C)c1S(=O)(=O)N1CCC(C)CC1,-1.2%
COc1ccccc1N1CCN(C(=O)Cn2ncc3ccsc3c2=O)CC1,-2.0%
CCc1ccc(CNc2ncnc3c2nc2n3CCCC2)cc1,8.7%

The main list resumes; the 2 compounds before the break are reprinted first.
miR-21 reporter | smiles
-11.4% | COc1cccc(OCc2nc3ccccc3n2Cc2ccccc2)c1
17.1% | COc1ccc(CNC(=O)c2ccc3c(c2)CCN3S(=O)(=O)c2ccc(Cl)cc2)cc1
-0.9% | COc1ccc2c(CNCc3cccs3)c(C(=O)O)n(Cc3ccccc3C)c2c1
0.7% | COC(=O)c1ccc(NC(=O)CCc2c(C)nn(-c3ccc(N4CCCC4)nn3)c2C)cc1
12.4% | CCN(Cc1ccccc1)C(=O)Cn1cc(S(=O)(=O)Cc2cccc(Cl)c2)c2ccccc21
4.1% | Fc1ccc(CNc2ncnc3onc(-c4ccc(F)cc4)c23)cc1
1.8% | Cc1ccc(CC(=O)N(Cc2nc(-c3ccc(C)cc3)no2)C(C)C)cc1
13.0% | CSc1nn(Cc2cccc(F)c2)c(N(C(C)=O)C(C)=O)c1S(=O)(=O)c1ccccc1
-9.6% | COc1cccc(CNC(=O)c2ccc3c(c2)nnn3C2CCCC2)c1
7.4% | Cc1ccccc1Cn1c(SCc2ccc(C(=O)NC(C)c3ccccc3)cc2)nc2ccncc21 (stereo not drawn)
2.3% | CCC1CCCCN1C(=O)Cn1c(=O)n(CC2CCC(C(=O)NC)CC2)c(=O)c2sccc21 (stereo not drawn)
11.5% | COc1ccc(-c2cc(C)no2)cc1S(=O)(=O)N1CC(C)Oc2ccccc21 (stereo not drawn)

Not all compounds are listed; count on the stated rates, not on these rows.
